Source: PubChem
Bst PK mod – modulators of Bacillus stearothermophilus pyruvate kinase | partly purified Bacillus stearothermophilus pyruvate kinase, luminescence ATP production; ribose 5-phosphate activator present at AC10 | 51,000 compounds, 1.2% hits | Potency, µM; in the data active means potency below about 11 µM; inconclusive means mostly about 12 µM to 25 µM; inactive means weaker than that;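 the screen sought inhibitors and activators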;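 further: potency means the concentration at half of the fitted maximal effect; scaled between full activation by ribose 5 phosphate and full inhibition by luteolin; about four in five hits inhibit and the cells do not say which; series up to 57 µM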
YjeE inh – displaces an ADP probe from E. coli YjeE (TsaE); 71,000 compounds, 0.05% hits; AID 605; purified YjeE, fluorescence polarisation of a bound ADP probe; Potency, µM; P0AF67; active = well fitted falling curve; inconclusive = weaker or top-dose-only fall, or a rising curve; inactive = flat or poorly fitted curve;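 further: top concentration of the series not given in the record; excess ADP was the control for the full effect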
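Fluorescence polarization of a BODIPY Texas Red–ADP probe (2 uM) bound to purified YjeE (10 uM) was read after 15 min room-temperature incubation with compounds. Loss of polarization marks inhibitors; ADP serves as titrated control.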
Numbers without * were called inactive; i = inactive; ? = inconclusive; / = no result given. The list is partial. The share of hits here may be higher or lower than overall.

Compound | Bst PK mod | YjeE inh
CSc1nc(-c2ccccc2)ccc1C(N)=O | / | i
Cc1c(C(=O)N2CCCCC2)sc(N)c1C#N | / | i
CCCC(=O)C1=C(c2ccccc2)C(C#N)(C#N)C(C#N)=C1N | >57 | i
CCOC(=O)c1c(C)[nH]c(C)c1C(=O)Cn1nnc(-c2ccccc2C)n1 | >57 | i
O=C(COC(=O)c1ccccn1)Nc1c(Cl)cccc1Cl | i | i
c1ccc(-c2noc(-c3cccnc3)n2)cc1 | / | i
COc1ccc(N2CCN(C(=O)CSc3ncccc3-c3nc4ccccc4[nH]3)CC2)cc1 | / | i
Cc1ccc(/C(O)=C2/C(=O)C(=O)N(Cc3cccnc3)C2c2ccccn2)cc1 (configuration not stated) | >57 | i
O=C(CCNS(=O)(=O)c1ccc(Br)s1)N1CCCCC1 | >57 | i
Nc1nc(SCCOc2ccccc2)n[nH]1 | >57 | i
O=C1C2C3CCCC3=C3CCCC3C2C(=O)N1c1ccc(Cl)cc1 (configuration not stated) | >57 | i
CC(=O)NCCc1ccc(S(=O)(=O)N2CCCC2)cc1 | / | i

Later entries.
Compound | Bst PK mod | YjeE inh
COCCn1c(=O)c(-c2ccc(F)cc2)nc2cnc(OC)nc21 | / | i
Cc1nnc(SCC(=O)N2CCN(S(=O)(=O)c3ccc(Cl)cc3)CC2)n(N)c1=O | >11.4 | i
COc1cccc(Oc2cn[nH]c2-c2ccc(OC)cc2O)c1 | >57 | i
CCCn1c(=O)c(Cc2ccccc2)c(O)c2ccccc21 | >57 | i
O=C(O)[C@@H]1CCCN1c1ncnc2sc3c(c12)CCC3 | >57 | i
Cc1c(/C(O)=C2\C(=O)C(=O)N(CCN(C)C)C2c2cccnc2)cnn1-c1ccccc1 (configuration not stated) | >25.6 | /
O=S(=O)(c1cc(Cl)ccc1Cl)N1CCN(Cc2ccc3c(c2)OCO3)CC1 | / | i
CS(=O)(=O)N1CCCC(C(=O)NC2CCCCCCC2)C1 (configuration not stated) | >57 | i
C=C(C)COc1ccc(-c2nc(N)ncc2Oc2ccccc2OCC)c(O)c1 | >57 | i
O=C(CCSc1ccc(Cl)cc1)N1CCN(c2ncccn2)CC1 | >57 | i
CCOC(=O)CSc1cc(=O)n(C)c2cc(Cl)ccc12 | ? | i
COc1cc2[nH]c(=O)n(CCC(=O)NC3CCN(Cc4ccccc4)CC3)c(=O)c2cc1OC | >57 | i

More records
Compound | Bst PK mod | YjeE inh
Cc1ccc(CCNC(=O)c2nnn(-c3cc(C)cc(C)c3)c2N)cc1 | >57 | i
Cn1c(=O)n(CCCOc2ccc(Cl)cc2)c2ccccc21 | i | i
COc1ccc(S(=O)(=O)Nc2nnc(C)s2)cc1 | / | i
CC[C@H](C)[C@H](N)C1=N[C@H](C(=O)N[C@@H](CC(C)C)C(=O)N[C@@H](CCC(=O)O)C(=O)N[C@@H](C(=O)N[C@H]2CCCCNC(=O)[C@@H](CC(N)=O)NC(=O)[C@@H](CC(=O)O)NC(=O)[C@@H](Cc3cnc[nH]3)NC(=O)[C@@H](Cc3ccccc3)NC(=O)[C@@H]([C@@H](C)CC)NC(=O)[C@@H](CCCN)NC2=O)[C@@H](C)CC)CS1 | / | i
COc1ccc(S(=O)(=O)N2CCC(C(=O)NCc3ccccn3)CC2)cc1Cl | >57 | i
CC(C)Nc1oc(-c2cccc3ccccc23)nc1C#N | >57 | i
O=C(CN(C(=O)CCC(=O)Nc1nccs1)c1ccc2c(c1)OCCO2)NCc1ccco1 | >57 | i
COc1ccc(-c2nc3cnc(OCc4ccccc4)nc3n(CCC#N)c2=O)cc1 | / | i
CN(C)c1cccc(C(=O)OCC(=O)NCC2CCCO2)c1 (configuration not stated) | >57 | i
CN1CCN(Cc2c(O)ccc3c(=O)c(Oc4ccccc4Cl)c(C(F)(F)F)oc23)CC1 | / | i
Cc1ccc(N2CC(c3nc4ccccc4n3C)CC2=O)cc1C (configuration not stated) | / | i
COc1ccc(NC(=O)c2cccc(-n3cnnn3)c2)cc1 | >57 | i

The list continues.
Compound | Bst PK mod | YjeE inh
CCN(CC)c1ccc(C(=O)OCC(=O)N2CCN(c3ccccc3)CC2)cc1 | >57 | i
C=CCOC(=O)Nc1c(C(=O)OC)[nH]c2ccccc12 | >11.4 | i
CCCN(CCC)C[C@@H]1CCCCN1CCNC(=O)N1c2ccccc2C(=O)Nc2cccnc21 | / | i
CCOC(=O)COc1cc2c3c(c(=O)oc2cc1C)CCCC3 | >57 | i
CCOCCCNS(=O)(=O)Cc1ccccc1 | >57 | i
O=C(O)CCC(=O)Nc1ccc(C(=O)OC2CCCCC2)cc1 | / | i
COc1ccc(S(=O)(=O)Cc2ccc(C(=O)NCCCN(C)c3ccccc3)o2)cc1 | >57 | i
CCc1c(C)nc(N)n2c(SCC(=O)N3CCN(c4ccccc4F)CC3)nnc12 | >57 | i
Cc1nc2ccc(S(=O)(=O)NCC(=O)N3CCCCC3)cc2s1 | >57 | i
CC#CCN(CC#CC)S(=O)(=O)c1ccc(-n2cnnn2)c(OC)c1 | >57 | i
CCCCCCC1C(C#N)=C(N)OC2=C1C(=O)CCC2 (configuration not stated) | / | i
CCCc1ncc(C[n+]2ccccc2C)c(N)n1 | / | i

Continuation.
Compound | Bst PK mod | YjeE inh
CCCc1cc(=O)[nH]c(/N=C(/NC(=O)C(C)N2C(=O)c3ccccc3C2=O)Nc2ccccc2)n1 (configuration not stated) | >57 | i
Cn1c(CCN2CCOCC2)nc2cc(NC(=O)COc3ccc(Cl)cc3)ccc21 | >57 | i
CCOC(=O)C1=C(C)NC(C)=C(C(=O)OCC)C1C(=O)OCC(=O)N1CCc2ccccc21 | >57 | i
O=C(Nc1ccc(F)cc1F)c1ccc(COc2c(F)c(F)cc(F)c2F)o1 | >57 | i
Cc1ccc2cccc(S(=O)(=O)n3nc(C)cc3C)c2n1 | >57 | i
O=C(NCCN1CCOCC1)c1ccc(CS(=O)(=O)c2ccc(Br)cc2)o1 | / | i
CCN(CC(=O)Nc1ccc2c(c1)OCCO2)Cc1cc(=O)oc2cc(C)c(C)cc12 | >57 | i
CCOC(=O)c1[nH]c2ccccc2c1N=CN(CC)CC | >25.6 | /
CN(CCOC(=O)c1cccc(Br)c1)C(C)(C)C | >25.6 | /
CN1C(=O)CC[C@@H]1c1cccnc1 | / | ?
Cc1cc(C(=O)N2CCCC2C(=O)O)c(C)o1 (configuration not stated) | / | i
O=C(Nc1nnc(SCc2ccc(Cl)cc2)s1)c1ccco1 | >57 | i

Next compounds follow:
Compound | Bst PK mod | YjeE inh
CCCCN1CCc2c([nH]c3ccc(C)cc23)C1=O | >57 | i
O=C(Oc1ccccc1)N1CCC2(CC1)CCN(c1cccc(-c3ccccc3)c1)CC2 | / | i
O=C(Oc1cccc(-n2cnnn2)c1)c1sc2ccccc2c1Cl | >57 | i
CCOC(=O)c1c(C)c(C(=O)NCCCN2CCCC2=O)c(C)n1CC | >57 | i
CCC1CCCCN1Cc1nc2c(c(=O)n(C)c(=O)n2C)n1Cc1ccccc1 (configuration not stated) | / | i
COc1cccc(-c2cc(C(=O)Nc3cnn(Cc4ccc(F)cc4)c3)no2)c1 | >57 | i
CCNc1nc(NCC)n2c(SCc3ccc(F)cc3)nnc2n1 | / | i
CCC(=O)Nc1cc(C)c(NC(=O)C23CC4CC(CC(C4)C2)C3)cn1 | >57 | i
O=C(O)/C=C\c1cnc[nH]1 | / | i
NC(=O)CSc1c[nH]c2ccccc12 | >25.6 | /
COc1cc(C2N=C(c3ccccc3)NO2)cc(Br)c1O (configuration not stated) | >57 | i
CSCC[C@@H](C(=O)Nc1ccc2c(c1)OCCO2)N1Cc2ccccc2C1=O | / | i

(cont.)
Compound | Bst PK mod | YjeE inh
COc1ccc2nc(/N=C\N(C)C)sc2c1 | / | i
Cc1ccc2oc(=O)c3cnn(CC(=O)N4CCN(c5ccccn5)CC4)c3c2c1 | / | i
CCOc1ccc(/C(O)=C2/C(=O)C(=O)N(Cc3cccnc3)C2c2ccc(N(C)C)cc2)c(C)c1 (configuration not stated) | >57 | i
CC(=O)N1CCCc2cc(S(=O)(=O)N(C)CCC#N)ccc21 | >57 | i
Cn1c(=O)c2[nH]c(CSCc3ccccc3)nc2n(C)c1=O | / | i
CCn1c(SCC(=O)c2ccc(NS(=O)(=O)c3ccccc3)cc2)nnc1-c1cccs1 | >57 | i
COCCn1nnnc1C(c1cc(OC)ccc1OC)N1CCc2ccccc2C1 (configuration not stated) | >57 | i
COCCNC(=O)c1ccc(CS(=O)(=O)c2ccc(C)cc2)o1 | >57 | i
CN(C)c1ccc(C2C3C(=O)NC(=O)C3ON2c2ccc(Cl)cc2)cc1 (configuration not stated) | / | i
Cc1cc(-n2nc(C)cc2C)n2ncc(-c3ccccc3)c2n1 | >57 | i
O=C(c1cnccn1)N1CCC2(CCCN(Cc3ccncc3)C2)CC1 | / | i
O=C(Nc1ccc2c(c1)oc1ccccc12)c1ccncc1 | / | i

(further entries)
Compound | Bst PK mod | YjeE inh
O=C1CC2(CCCCC2)Oc2ccc(O)cc21 | >57 | i
CC(C)Sc1nc2c(cnn2-c2ccccc2)c(=O)[nH]1 | / | i
COc1cc(C(c2nnnn2C(C)(C)C)N2CCN(c3nc4ccccc4s3)CC2)ccc1O (configuration not stated) | >57 | i
Cc1nc2cnc(Oc3ccccc3)nc2n(Cc2cccs2)c1=O | / | i
CN(C)Cc1nc2c([nH]1)c(=O)n(C)c(=O)n2C | / | i
CN(C)S(=O)(=O)N1CCN(C(=O)c2ccccc2Cl)CC1 | >57 | i
Cc1cc(C)n(-c2nncn2/N=C/c2ccccc2F)n1 | >57 | i
CC(C)=CCC/C(C)=C/CN(CC(C)O)CC(C)O (configuration not stated) | >57 | i
COc1cccc2sc(Nc3nnc(-c4cccs4)o3)nc12 | >57 | i
Cc1ccc2c(c1)cc(C)c1nnc(SCC(=O)NCc3ccco3)n12 | 4.16* | i
Cc1ccc(-c2cc(C(=O)NCc3ccco3)no2)cc1 | >57 | i
CCOC(=O)c1cc2ccccc2nc1C | / | i

(further entries)
Compound | Bst PK mod | YjeE inh
CCCC(c1nnnn1Cc1ccccc1)N1CCC(C(N)=O)CC1 (configuration not stated) | >57 | i
CNC(=O)Nc1ccccc1C(=O)NCc1ccccc1 | >57 | i
c1ccc(-c2nn3c(C4CCCCC4)nnc3s2)nc1 | >57 | i
CC1CN(C(=O)CSc2nnc(-c3ccc(Cl)cc3)n2C)CC(C)O1 (configuration not stated) | >57 | i
CCOc1ccc(N2C(=O)CC(N3CCN(C4CCc5ccccc5C4)CC3)C2=O)cc1 (configuration not stated) | / | i
COc1ccc(Oc2coc3cc(OC(=O)N4CCOCC4)ccc3c2=O)cc1 | >57 | i
COC(=O)c1cc(Br)ccc1OC(=O)c1cccnc1 | >57 | i
COC(=O)c1ccc(C(NC(=O)OCc2ccccc2)/C(F)=C/[C@@H](C)C(=O)NCc2ccc(-c3ccccc3)cc2)cc1 (some centres not stated) | / | i
COc1ccc(-c2noc(CCC(=O)Nc3cc(OC)ccc3OC)n2)cc1 | >57 | i
N#Cc1nc(-c2cccs2)oc1NCc1ccco1 | >11.4 | i
CCOC(=O)C1CCCN(Cc2c(Cl)cccc2Cl)C1 (configuration not stated) | >57 | i
COCCn1c(=O)cnc2cnc(Oc3cccc(Cl)c3)nc21 | / | i

Later entries.
Compound | Bst PK mod | YjeE inh
C=CCN(CC=C)CC(O)Cn1c2ccccc2c2ccccc21 (configuration not stated) | >57 | i
COC(=O)c1ccccc1NC(=O)COC(=O)c1cccnc1 | >57 | i
COC(=O)Cc1[nH]nc2c1C1(CCSCC1)C(C#N)=C(N)O2 | >57 | i
COc1ccc(S(=O)(=O)N2CC(C)N(S(=O)(=O)c3ccc(OC)cc3)CC2C)cc1 (configuration not stated) | / | i
CC(C(=O)NCC1CCCO1)n1cccc1C(=O)c1ccccc1 (configuration not stated) | >57 | i
CC(C)Cc1ccc(C(C)C(=O)N2CCOCC2)cc1 (configuration not stated) | >57 | i
CCO/C(C)=N/n1c2nc3ccccc3nc2c2c(=O)n(Cc3ccccc3Cl)c(C)nc21 | >25.6 | /
COc1cc(OC)cc(-c2cc3nc(C)c(CCC(=O)O)c(C)n3n2)c1 | / | i
CC(=O)Nc1ccc(S(=O)(=O)N(C)CC(=O)NC2=NCCS2)cc1 | >57 | i
Cc1nnc(SCc2ccccc2C#N)n1-c1ccccc1 | / | i
CC(OC(=O)CNC(=O)c1ccc2c(c1)OCO2)C(=O)NCCC1=CCCCC1 (configuration not stated) | >57 | i
Cc1ccccc1N1C(=O)[C@@H]2Cc3ccccc3CN2C1=O | >11.4 | i
COc1ccccc1CC1(C)NC(=O)N(CC(=O)N2CC(C)OC(C)C2)C1=O (configuration not stated) | >57 | i
COC(=O)NCC1(C)CC(NC(=O)OC)CC(C)(C)C1 (configuration not stated) | >57 | i
O=C(c1ccncc1)N1CCN(C(=O)c2ccncc2)CC1 | >57 | i
